Screens: PubChem BioAssay, ICCB-Longwood Screening Facility, Harvard Medical School
Vaccinia pol inh = vaccinia E9 polymerase processive synthesis inhibition; in vitro processive DNA synthesis, absorbance read-out; active compounds read low; some inactives read as strong as hits; normalized absorbance, % (no concentration beside the values); AID 493162; 46,000 compounds, 0.94% hits;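 active = replicate mean up to 90% and picked by the depositor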;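 also: 100% = median of the test wells of a plate; 100 nL library stock went into each well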
An asterisk follows results filed as active.

SMILES	Vaccinia pol inh
CC1CN=C(NCCc2ccccc2)S1 (stereo not drawn)	90
Cc1noc2[nH]c(=O)cc(C(F)(F)F)c12	99
C(=N\c1nccs1)/c1cccnc1	95
CN(C)CCNC(=O)c1cc2c(Cl)nc3ccccc3c2s1	83
CC(C)Cc1nc2ccccc2n1Cc1ccccc1	97
Cn1c(=O)c2c(nc(SCC(=O)NC(C)(C)C)n2C)n(C)c1=O	100
Cc1ccc(N=C2NC(=O)C(Cc3cccc(C(F)(F)F)c3)S2)cc1 (stereo not drawn)	100
CCSc1nnc2c(n1)OC1(Nc3ccccc3-2)C(=O)Nc2ccc(Br)cc21 (stereo not drawn)	97
Oc1[nH]c(=S)sc1/C=N/c1nc2ccccc2[nH]1	97
COc1ccc2c(c1)c1nc(N(C)C)nc3c1n2CCN3C	11*
CCOC(=O)c1cnc(-c2cccs2)nc1Nc1ccc(Cl)cc1	100
CCCCC1C2=C(CCCC2=O)OC2=C1C(=O)CCC2	121

The list goes on, starting with the last twelve of the part before.
SMILES	Vaccinia pol inh
CC1CN=C(NCCc2ccccc2)S1 (stereo not drawn)	90
Cc1noc2[nH]c(=O)cc(C(F)(F)F)c12	99
C(=N\c1nccs1)/c1cccnc1	95
CN(C)CCNC(=O)c1cc2c(Cl)nc3ccccc3c2s1	83
CC(C)Cc1nc2ccccc2n1Cc1ccccc1	97
Cn1c(=O)c2c(nc(SCC(=O)NC(C)(C)C)n2C)n(C)c1=O	100
Cc1ccc(N=C2NC(=O)C(Cc3cccc(C(F)(F)F)c3)S2)cc1 (stereo not drawn)	100
CCSc1nnc2c(n1)OC1(Nc3ccccc3-2)C(=O)Nc2ccc(Br)cc21 (stereo not drawn)	97
Oc1[nH]c(=S)sc1/C=N/c1nc2ccccc2[nH]1	97
COc1ccc2c(c1)c1nc(N(C)C)nc3c1n2CCN3C	11*
CCOC(=O)c1cnc(-c2cccs2)nc1Nc1ccc(Cl)cc1	100
CCCCC1C2=C(CCCC2=O)OC2=C1C(=O)CCC2	121
O=C(CSc1nnc2sc3ccccc3n12)N1CCCC1	102
C=CCOC(=O)C1CC=CCC1C(=O)Nc1ccc(NC(C)=O)cc1 (stereo not drawn)	101
O=C(Nc1ccc(S(=O)(=O)N2CCCC2)cc1)c1cccs1	109
CCOC(=O)c1c(-c2ccc(Br)cc2)csc1/N=C/C1C(=O)NC(=S)NC1=O	100
OC1(C(F)(F)F)CSC(Cc2ccccc2)=N1 (stereo not drawn)	95
CC(C)Cn1c(CNC(=O)Cc2ccccc2)nc2ccccc21	100
O=C(NC(=O)C12CC3CC(CC(C3)C1)C2)Nc1ccc(Cl)cc1	114
N#CC1C(N)=Nn2c(nnc2C(F)(F)F)SC12C(=O)Nc1ccccc12 (stereo not drawn)	92
O=C(O)C(Cc1ccccc1)NS(=O)(=O)/C=C/c1ccccc1 (stereo not drawn)	98
COc1ccc(CC(=O)NC(C)C(c2cccs2)N2CCOCC2)cc1 (stereo not drawn)	100
CC(=Nc1c2c(nc3ccccc13)N(C)CC2)N(C)C	100
O=C(CSc1ccccn1)Nc1ccc2ccccc2c1	101
CCCN(CCC)c1nc(N2CCCCC2)c2nc(N(CCC)CCC)nc(N3CCCCC3)c2n1	99
Cc1cc(NC(=O)CN2C(=O)CC(c3ccccc3)Sc3ccccc32)no1 (stereo not drawn)	100
COCCn1c(=NC(=O)c2ccccc2)sc2cc(S(C)(=O)=O)ccc21	96
O=C(NC1CCN(Cc2ccccc2)CC1)c1cc2cc(Cl)ccc2[nH]1	112
CC1(c2cccs2)CC(c2cccs2)=Nc2ccccc2N1 (stereo not drawn)	100
O=C1Cc2ccccc2C(=O)N1Cc1ccccc1	102
C=CCc1cccc2cc(C(N)=O)c(=O)oc12	102
O=C(Cn1cc2c(n1)CCCCC2)N1CCCCC1	103
CC(NC(=O)c1ncn[nH]1)c1ccc(-c2ccccc2)cc1 (stereo not drawn)	100
CN1c2ccc(Cl)cc2C(=O)NC1c1ccc(C#N)cc1 (stereo not drawn)	106
Cc1nc(C2COc3ccccc3O2)ncc1S(=O)(=O)c1ccc(Cl)cc1 (stereo not drawn)	88
CC1CCc2c(sc(NC(=O)c3cccs3)c2C(=O)O)C1 (stereo not drawn)	91
O=C1CN(C(=O)CCC(=O)c2ccc(F)cc2)c2ccccc2N1	101
O=C(O)CNC(=O)C(c1ccccc1)c1ccccc1	107
c1ccc(Cc2nn[nH]n2)cc1	107
Clc1ccc(Nc2nnns2)cc1	97
COC(OC)c1ccc(C#N)c(SCc2ccc(Cl)cc2)n1	100
COc1ccc2c(=O)c(Oc3ccccc3)c(C)oc2c1OC	101
C=CCSC1=C(C#N)C(c2ccc(C)cc2)C(C(=O)OC)C(=O)N1 (stereo not drawn)	100
CC1CS/C(=C(/C(=O)O)C(=O)/C=C/c2cccc(O)c2)S1 (stereo not drawn)	99
FC(F)(F)c1cccc(NCc2cn3ccccc3n2)c1	102
COc1cccc(-n2cc(C(=O)N3C(C)CCCC3C)c3ccccc3c2=O)c1 (stereo not drawn)	101
Cc1cc(C=C2C(=O)OC(C)(C(C)(C)C)OC2=O)c(C)n1-c1ccccc1 (stereo not drawn)	100
COc1ccc2c(c1)c(CC(=O)OCc1ccccn1)c(C)n2C(=O)c1ccc(Cl)cc1	99

Reprinted from the part before: two compounds, then new ones.
SMILES	Vaccinia pol inh
Cc1cc(C=C2C(=O)OC(C)(C(C)(C)C)OC2=O)c(C)n1-c1ccccc1 (stereo not drawn)	100
COc1ccc2c(c1)c(CC(=O)OCc1ccccn1)c(C)n2C(=O)c1ccc(Cl)cc1	99
O=C(O)CN1C(=O)c2cccc3c(Cl)cc(Cl)c1c23	85
CC(C)NC(=O)c1ccc2c(=O)n(Cc3ccco3)c(=S)[nH]c2c1	101
O=C(O)c1cccc(-c2nc3ccccc3[nH]2)c1	95
Clc1c(-c2nnco2)sc2ccccc12	92
CC(=O)OC1(c2ccccc2)CC(C(C)(C)C)CN(C(C)(C)C)C1 (stereo not drawn)	101
CCn1cnc2c(=O)[nH][nH]c(=O)c21	90
COc1ccc(NC(=S)NCCN(C2CCCCC2)C2CCCC2)cc1	105
N#Cc1c(-c2ccccc2)c(-c2ccccc2)n[nH]c1=S	103
O=C(c1ccc(Cl)cc1Cl)n1c(=O)oc2cc(S(=O)(=O)N3CCCCC3)ccc21	101
Cc1ccc(NC2(c3nnnn3CCOC(=O)Nc3ccc(Cl)cc3)CCCCC2)cc1	101
FC(F)(F)Oc1ccc(C2c3ccsc3CCN2Cc2nc3ccccc3s2)cc1 (stereo not drawn)	109
O=C(O)CN1C(=O)S/C(=C\c2ccccc2Cl)C1=O	100
C=CCn1c(=NC(=O)c2ccc(F)cc2)sc2cc(C(=O)OC)ccc21	117
CCc1nn(-c2ccccc2)c2nc(-c3ccccc3O)c3cc(OC)c(OC)cc3c12	100
O=C(NO)C12CCC(CC1)C2	98
CC(C)CCNC(=O)C1CCN(C(=O)c2cc3sccc3n2Cc2ccc(F)cc2)CC1	84
COc1ccc(NC(=O)Cc2c(F)c(F)c(F)c(F)c2F)cc1OC	94
Cc1cc(C=Nc2ccc(O)c(C(=O)O)c2)c(C)n1-c1ccc(N(C)C)cc1	100
COc1ccccc1OCCN1CCCCC1	106
Cc1nnc(Sc2nc(Nc3ccccc3)nc(Nc3ccccc3)n2)s1	97
Cc1scc(-c2ccccc2)[n+]1C	97
CC(=O)O[C@@H]1[C@H]2OC(C)(C)O[C@H]2O[C@@H]1C(O)CO (stereo partly drawn)	106
O=C(c1ccccc1)N1CC(=O)N(OCc2ccccc2)C1c1cccs1 (stereo not drawn)	100
Cn1c(Cc2nc(-c3cnccn3)no2)nnc1SCc1ccc(Cl)cc1	107
COc1ccc(C(=O)Nc2cccc(-c3nc4ccccc4o3)c2)cc1	100
O=C(Cc1ccccc1)Nc1ccc2oc(-c3ccncc3)nc2c1	91
O=S(=O)(NCCO)c1cc(Cl)ccc1Cl	100
CNC(=O)c1c(O)c2ccccc2[nH]c1=O	100
Cn1cccc1Cc1nnc(SCC(=O)Nc2ccccc2)n1-c1ccc(F)cc1	100
Cc1cccc2c1-c1sc(C(=O)n3c(C)cc4ccccc43)cc1CO2	97
O=S(=O)(Cc1cccc(C(F)(F)F)c1)N1CCCCC1	101
N=C1SC2CS(=O)(=O)CC2N1Cc1ccccc1 (stereo not drawn)	106
CCCCn1c(SCC(=O)c2ccccc2)nc2ccsc2c1=O	102
CC1C/C(=C\c2cccnc2)C(=O)/C(=C/c2cccnc2)C1 (stereo not drawn)	95
O=C(c1cc(S(=O)(=O)N2CCCC2)c(Cl)cc1Cl)N1CCCC1	98
S=C1NC2=C(CCc3ccccc32)C(c2ccccc2)N1 (stereo not drawn)	100
CC(=C(C#N)C#N)c1ccc(Br)cc1	99
O=S1(=O)CCN(OCc2ccc(C(F)(F)F)cc2)CC1	103
Cc1ccccc1CSCC(=O)NCc1ccccc1	103
Cc1cccn2cc(-c3ccc(NC(=O)CC(C)C)cc3)nc12	113
COC(=O)C1=[N+]([O-])OC(C(=O)OC)C1c1c[nH]c2ccccc12 (stereo not drawn)	100
CC1N=C2c3ccccc3N=C(SCc3ccc(F)cc3)N2C1=O (stereo not drawn)	98
CNC(=S)NCc1ccc(-c2csnn2)cc1	101
CC(C)CC(=O)Nc1ccc(C(=O)O)cc1	100
C=CCN(C(=O)Cn1c(=O)n(-c2ccc(C)cc2)c(=O)c2sccc21)c1ccccc1	96
CCSC1=N/C(=C\c2ccc(Br)s2)C(=O)S1	100
COc1ccc2c(C)cc(Sc3nnnn3-c3ccccc3)nc2c1	100
Cc1[nH]c2ccccc2c1SCCNC(=O)c1ccccc1	100
Cn1c2c(c(=O)n(C)c1=O)C(c1cccc(Cl)c1)C1C(=O)c3ccccc3C1=N2 (stereo not drawn)	100
O=C(Cc1ccccc1)Nc1nn2c(COc3ccccc3)nnc2s1	96
O=C(NCc1nnc(SC/C=C/c2ccccc2)o1)c1ccco1	99
COc1ccc(C)cc1NC(=O)COc1ccccc1F	97
Cc1cc(NC(=O)c2ccccc2C)n(-c2nc3ccccc3[nH]2)n1	93
Cc1ccc(NC(=O)C(Cc2c[nH]c3ccccc23)NC(=O)C(c2ccccc2)c2ccccc2)cc1 (stereo not drawn)	100
O=C(c1ccco1)c1cn(CCOc2ccccc2Cl)c2ccccc12	106
OCCn1c(SC2CCCCC2)nc2ccccc21	100
Cc1nc(S(=O)(=O)NCCNc2ccc(-c3ccc(F)cc3)nn2)cn1C	100
CC(Oc1ccc2c(-c3ccccc3)cc(=O)oc2c1)C(=O)ON1C(=O)CCC1=O (stereo not drawn)	99
CCCCn1c(SCC(=O)NCc2ccccc2)nc2c(sc3ccccc32)c1=O	103
CCCNc1ccccc1-c1nc2n[nH]nc2c(=O)[nH]1	100
Later entries:
SMILES	Vaccinia pol inh
Cn1c(SCC(=O)Nc2ccc(F)cc2F)nnc1-c1c[nH]c2ccccc12	101
N#Cc1ccsc1NC(=O)c1ccccc1	75
Cc1nnc(SCC#N)n1-c1ccccc1	101
O=C(CSc1nc(SCC(=O)c2ccccc2)c2ccccc2n1)c1ccccc1	99
O=C(Cn1c(=O)c2ccccc2n2nncc12)Nc1ccc(Br)cc1	102
CC(NCc1c(C(=O)O)n(C)c2ccccc12)C12CC3CC(CC(C3)C1)C2 (stereo not drawn)	103
COc1ccc(NC(=O)C(Cc2ccccc2)NS(=O)(=O)c2cccc3cccnc23)cc1 (stereo not drawn)	101
O=C(CCCCl)Nc1ncnc2c1cnn2-c1ccccc1	104
Cc1sc2ncn(CC(=O)Nc3ccccc3)c(=O)c2c1C	97
Cc1ccccc1NC(=O)NCCCN1CCCC1	92
COc1ccc(-c2nn(-c3ccccc3)cc2C=C2C(=O)CC(C)(C)CC2=O)cc1	100
O=C(CSc1nc2ccccc2s1)Nc1ccncc1	100
CCOc1ccccc1C=Nc1ccc(Br)cc1	98
S=C(c1nc2ccccc2[nH]1)N1CCOCC1	100
Cc1nc(-c2ccc(Cl)cc2)sc1C(=O)/C=C/N(C)C	95
O=C1/C(=C/c2ccncc2)CC/C1=C\c1ccncc1	101
COc1cc2c(cc1OC)-c1cc(=Nc3c(C)cc(C)cc3C)n(C)c(=O)n1CC2	98
O=C(O)CCCC(=O)Nc1ccccn1	98
O=C(OCc1ccc(-c2cc(C(F)(F)F)cc(C(F)(F)F)c2)o1)c1ccc2c(c1)CCO2	109
O=S(=O)(Nc1ccc(O)cc1)c1ccc2ccccc2c1	101
COc1ccc2nc(C)cc(N3CCOCC3)c2c1	100
CCCC/C(=N\O)c1c(C)[nH]c2ccccc12	87
COc1ccc(Br)c2c1OCCO2	100
Cc1nc(N2CCSCC2)ncc1S(=O)(=O)c1ccc(Cl)cc1	125
Cc1nc(SCCOc2ccccc2)sc1C(=O)Nc1ccccc1	100
O=C(O)c1c(-n2cccc2)sc2c1CCCC2	101
C=CCc1cccc2cc(C(=O)N(C)C)c(=O)oc12	100
CCOC(=O)c1c(NC(=S)Nc2cc(C)nn2-c2ccccc2)sc(C)c1C	102
CCN(CC)S(=O)(=O)c1ccc2c(c1)nc1n2CCCCC1	105
O=C(O)c1cc2c(o1)CCC/C2=N/O	98
CC(C)CN(CC(C)C)C(=O)c1cc(-c2ccccc2)n[nH]1	99
CC1CCCCN1C(=O)c1oc(=O)c2ccccc2c1-c1ccccc1 (stereo not drawn)	104
CCc1ccc(C2C(C(=O)Nc3ccccc3C)=C(C)NC3=C2C(=O)CCC3)cc1 (stereo not drawn)	101
CCCn1cnc2c(oc3ccccc32)c1=O	90
CC1=CC=CC2=NC(=O)CC(C)(C(=O)O)N12 (stereo not drawn)	106
N#C/C(C(N)=O)=C1/C(=O)Nc2ccc(Br)cc21	94
Cc1ccc2cc(C)c(Nc3ccc4c(c3)OCO4)nc2c1	104

These rows are one share of the data; the hit share may differ from the screen's.
